GIV-Gai inh: inhibitors of GIV GBA-motif binding to rat Galpha-i3; actives 0.42% (n = 210,000); P08753; percent of control (FP), % (test concentration not listed); Galpha-i3/FITC-GIV peptide fluorescence polarization, 90 min; active compounds read low; scaled: aluminum fluoride 0%, vehicle 100%; AID 1224905;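 active means replicate mean at 85% of control or lower, very high polarization wells dropped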;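 further: lower values mean more displacement of the GIV peptide from Galpha-i3; wells of about 15 µL received 100 nL stock; the first replicate is given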
Target sequence (P08753 whole entry, looked up): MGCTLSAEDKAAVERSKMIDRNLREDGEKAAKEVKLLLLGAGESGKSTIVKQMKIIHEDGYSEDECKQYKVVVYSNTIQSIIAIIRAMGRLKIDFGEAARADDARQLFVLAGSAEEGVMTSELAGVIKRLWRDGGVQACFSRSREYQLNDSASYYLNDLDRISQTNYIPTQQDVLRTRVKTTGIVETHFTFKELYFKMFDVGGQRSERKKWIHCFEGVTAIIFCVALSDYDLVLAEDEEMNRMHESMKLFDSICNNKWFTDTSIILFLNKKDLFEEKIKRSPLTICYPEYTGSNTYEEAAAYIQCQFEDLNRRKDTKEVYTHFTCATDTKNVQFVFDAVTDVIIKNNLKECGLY
Sa growth 42C: S. aureus growth inhibition; S. aureus RN4220 growth, OD600, 20 h, 42 °C; active compounds read low; relative growth, % (no concentration beside the values); actives 0.53% (n = 170,000);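 active means growth at 42 °C up to 50% and 20 or more points under that at 30 °C, or under 10% at both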;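 further: 300 nL library stock went into each well; scaled to the means of positive and negative controls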
HCMV UL50-53 inh: inhibitors of HCMV UL50-UL53 nuclear egress complex interaction; inhibition, % (no concentration beside the values); actives 0.15% (n = 190,000); HTRF UL50-UL53 interaction, normalized percent inhibition;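 active means both replicates at 50% or more, plus weaker picks with an unusually low signal ratio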;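 further: stock transfer was 100 nL into about 20 µL; 0% = negative control wells and 100% = wells with untagged competitor protein; inactives centre near -12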
Sa growth 42C second temp: further read-out of Sa growth 42C, marked with its call; relative growth, %; measured here: growth at 30 °C;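 optical density after 20 h as mean of two plates; 100% = untreated growth and lower means inhibition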
* marks the source's active call; other numbers are inactive results; . = no result given; & = joins results of further samples.

Each structure is followed by: GIV-Gai inh, Sa growth 42C, Sa growth 42C second temp, HCMV UL50-53 inh
> O=C(CCC1N=C2c3ccccc3N=C(SCc3ccccc3Cl)N2C1=O)NCc1cccs1 (stereo unspecified)
    100, 87, 86, .
> CC(C)NC(=O)c1c(O)nc2ccccn2c1=O
    104, 90, 80, -10
> CC(=O)Nc1nonc1N=Cc1ccc(F)cc1
    ., 95, 108, -7
> CCOC(=O)c1c(NC(=O)CCN2C(=O)/C(=C/c3cc(OC)c(OC)c(OC)c3)SC2=S)sc2c1CCCC2
    108, ., ., -7
> Cc1ccc2nc(NCn3nc(-c4ccccc4)oc3=S)sc2c1
    101, 88, 82, .
> COC(=O)CCc1c(C)[nH]c(=S)[nH]c1=O
    101, 103, 88, .
> CCOC(=O)c1ccc(NC(=O)CNC(=O)C23CC4CC(CC(C4)C2)C3)cc1
    94, 107, 96, .
> Cc1ccc(C)c(NS(=O)(=O)c2cc3c4c(c2)CCN4C(=O)CC3)c1
    98, ., ., -9
> CCN(C(=S)Nc1cccnc1)c1ccccc1
    ., 91, 85, -8
> CN(Cc1ccccc1)C(=O)Cn1c(=O)oc2cc(S(=O)(=O)N3CCCC3)ccc21
    102, 104, 93, 4
> CCCn1c(COc2ccccc2)nc2ccccc21
    99, ., ., -5&-16
> Cc1nc2ccccc2n(CC(=O)N2CCN(c3ccccn3)CC2)c1=O
    103, ., ., -36
> CCOC(=O)C1=C(Sc2nnc3nc(C)cc(C)n23)NC(=O)NC1c1ccccc1 (stereo unspecified)
    104, 98, 83, -20
> Cc1cccn2c(=O)c(/C=N/O)c(N3CCCCC3)nc12
    109, 96, 88, .
> Clc1ccc2nc(NC3=NCN(CCN4CCOCC4)CN3)nc(-c3ccccc3)c2c1
    98, 106, 102, .
> c1ccc2[nH]c(SCc3nc4ccccc4o3)nc2c1
    ., 110, 92, 7
> CCc1cccc(C)c1NC(=O)CCn1c(=O)c2cccn2c2ccccc21
    101, 127, 89, -14
> Cc1ccccc1-c1noc(-c2ccccc2OCC(=O)Nc2nccs2)n1
    97, ., ., -11
> CC1=C(C)CC(C(=O)Nc2cccc(C)c2C)C(C(=O)O)C1 (stereo unspecified)
    ., 162, 101, -3
> O=C(O)Cn1nnnc1SCC(=O)Nc1ccc(F)cc1F
    104, 109, 75, 0
> Cc1oc(-c2ccc(Cl)cc2)nc1CSc1nc(-c2ccncc2)cc(=O)[nH]1
    103, ., ., -15
> O=C(CSc1nnc(SCC(=O)c2ccccc2)s1)c1ccccc1
    109, 77, 86, -23
> Cc1c(C2=CCN(S(=O)(=O)c3cccc(Cl)c3)CC2)c2ccccc2n1CC(=O)N1CCCC1
    109, 105, 75, 11
> COC(=O)c1ccc(CSc2nc(N)c3c4c(sc3n2)CCCC4)o1
    ., 83, 98, -16
> CN1CC(=O)N(CC(=O)Nc2ccc(Cl)c(C(F)(F)F)c2)c2ccccc2C1=O
    110, 141, 89, .
> Cc1cc2ccccc2c(=O)n1CC(=O)NCC(=O)Nc1ccc(F)cc1
    96, 101, 89, -9
> CC(C)(C)SCC(=O)N1CCN(c2ncc(C(F)(F)F)cc2Cl)CC1
    104, 106, 92, 1
> CCOC(=O)C1CCCCN1S(=O)(=O)c1ccc2c(c1)CC(C)N2C(=O)C1CC1 (stereo unspecified)
    105, 82, 73, -35
> COc1ccc(S(=O)(=O)c2cnc3ccc(Cl)cc3c2N2CCCCC2C)cc1 (stereo unspecified)
    104, 88, 85, 14
> O=C(NC(CO)Cc1ccccc1)c1ccccc1C(F)(F)F (stereo unspecified)
    ., 85, 94, -21
> Cc1ccc2cc(CN(CCN(C)C)C(=O)NC3CCCCC3)c(=O)[nH]c2c1
    113, 86, 105, 15
> O=C(CSc1nnc(-c2ccccc2F)n1C1CC1)c1ccc(Cl)s1
    ., 131, 90, -6
> Cc1ccc(C2NC(=O)c3n[nH]c(-c4cccs4)c32)cc1 (stereo unspecified)
    108, 97, 74, -13
> COc1ccc(CNC(=O)c2c(O)nc3cc(C)ccn3c2=O)cc1
    102, 96, 88, -9
> Cc1[nH]c2ccccc2c1C=NCCc1ccncc1
    ., 84, 85, -8
> O=C(Nc1cccc(Cl)c1Cl)C1CC(=O)N(Cc2ccccc2)C1 (stereo unspecified)
    ., 90, 92, -2
> OCCn1c(SCCSc2nc3ccccc3n2CCO)nc2ccccc21
    102, ., ., -11
> Cc1cccc(N2CCN(C(=O)CCCn3nc(C)c4sc5ccccc5c4c3=O)CC2C)c1 (stereo unspecified)
    102, ., ., -6
> CCOC(=O)c1ccccc1NC(=O)c1c(-c2ccccc2Cl)noc1C
    101, ., ., -12
> O=C1CC(c2ccc3c(c2)OCO3)c2scc(S(=O)(=O)c3ccccc3)c2N1 (stereo unspecified)
    100, ., ., -5
> CC1=C(C(=O)Nc2ccc(F)cc2)C(c2ccc(N(C)C)cc2)NC(=O)N1 (stereo unspecified)
    108, 103, 96, 17
> Cc1cc(NCc2ccccc2)no1
    112, 102, 91, 0
> CN(C)CCCNc1cc(N2CCN(C3CCCCC3)CC2)c2noc3c2c1C(=O)c1ccccc1-3
    -7.2*, 121, 90, -151
> COc1ccc(NC(=O)Cn2c(=O)n(-c3ccccc3)c(=O)c3c4c(sc32)CCCC4)cc1
    106, 104, 93, -31
> NC(=S)N/N=C/C=C/c1ccccc1
    103, 89, 79, -76

Reformatted: results already given
Cc1ccc(C2NC(=O)c3n[nH]c(-c4cccs4)c32)cc1 (stereo unspecified)
  GIV-Gai inh: 108 | Sa growth 42C: 97 | Sa growth 42C second temp: 74 | HCMV UL50-53 inh: -13
COc1ccc(CNC(=O)c2c(O)nc3cc(C)ccn3c2=O)cc1
  GIV-Gai inh: 102 | Sa growth 42C: 96 | Sa growth 42C second temp: 88 | HCMV UL50-53 inh: -9

Next results follow:
Each structure is followed by: GIV-Gai inh, Sa growth 42C, Sa growth 42C second temp, HCMV UL50-53 inh
> CC(C)c1ccc(-n2c(NN)nc3ccccc3c2=O)cc1
    ., 87, 97, 2
> COc1cccc(NC(=O)CCS(=O)(=O)c2cc(-c3cc(C)no3)ccc2C)c1
    108, ., ., 1
> Cc1onc(-c2c(F)cccc2Cl)c1C(=O)NC(=S)NCc1cccnc1
    111, 98, 86, 18
> COC(=O)C1=C(C)NC2=C(C(=O)CC(c3ccc(OC)c(OC)c3)C2)C1c1ccccc1OC(C)C (stereo unspecified)
    104, ., ., -25
> O=[N+]([O-])c1cc(-c2nc(-c3ccccc3)no2)ccc1NCc1ccco1
    107, 90, 90, -23
> CCCSc1nc2c(c(=O)[nH]1)C(c1ccc(F)cc1)C(C(=O)OC)=C(C)N2 (stereo unspecified)
    100, ., ., -31
> N#Cc1ccc(OC(=O)c2cc(-c3ccc(Cl)cc3)on2)cc1
    102, 97, 87, -14
> NCCCCCc1nnc(SCc2ccc(F)cc2)o1
    101, 100, 89, -15
> COc1ccc(C)cc1NC(=O)C(Sc1nnnn1Cc1cccs1)c1ccccc1 (stereo unspecified)
    ., 132, 90, -2
> COc1ccc(-n2c(CC3C(=O)Nc4ccc(C)cc43)nc3ccccc3c2=O)cc1 (stereo unspecified)
    101, 124, 84, -20
> O=C(Cc1ccc(Cl)cc1)Nc1ccc2[nH]c(=O)[nH]c2c1
    99, 104, 98, -18
> O=C(NCCc1ccccc1)c1ccc(CSc2nc3ccncc3[nH]2)cc1
    96, ., ., -22
> CCc1cc2ccccc2nc1SCC(=O)N1CCCC1
    99, 106, 99, -21
> CC(=O)N1CCCc2cc(S(=O)(=O)N3CCCC(C(=O)N4CCN(c5cccc(Cl)c5)CC4)C3)ccc21 (stereo unspecified)
    104, 114, 33, .
> O=C(COc1ccc(Oc2ccccc2)cc1)NCc1cn2ccsc2n1
    ., 110, 97, -2

One compound at a time, as listed above. Order of values: GIV-Gai inh, Sa growth 42C, Sa growth 42C second temp, HCMV UL50-53 inh
Profile of `O=C(COc1ccc(Oc2ccccc2)cc1)NCc1cn2ccsc2n1` → ., 110, 97, -2
Profile of `CCCSc1nc2c(c(=O)[nH]1)C(c1ccc(F)cc1)C(C(=O)OC)=C(C)N2` (stereo unspecified) → 100, ., ., -31
Profile of `O=C(Cc1ccc(Cl)cc1)Nc1ccc2[nH]c(=O)[nH]c2c1` → 99, 104, 98, -18
Profile of `CC(=O)N1CCCc2cc(S(=O)(=O)N3CCCC(C(=O)N4CCN(c5cccc(Cl)c5)CC4)C3)ccc21` (stereo unspecified) → 104, 114, 33, .
Profile of `COc1ccc(-n2c(CC3C(=O)Nc4ccc(C)cc43)nc3ccccc3c2=O)cc1` (stereo unspecified) → 101, 124, 84, -20

(listing goes on)
Each structure is followed by: GIV-Gai inh, Sa growth 42C, Sa growth 42C second temp, HCMV UL50-53 inh
> O=S(=O)(c1cccc2nsnc12)N1CC(OCc2ccc(Cl)cc2)C1
    99, ., ., -104
> CSc1nc(Nc2cccc(C)c2)c(C#N)c(-c2ccccc2)n1
    102, 108, 95, 48*
> CC(=O)Nc1cc(C2CC2)[nH]n1
    102, 74, 86, -14
> Nc1nc(SC(C(=O)c2c[nH]c3ccccc23)c2ccccc2)n[nH]1 (stereo unspecified)
    ., 143, 98, 8
> CCSc1nn(C(C)C)c2nc3c(c(=O)n12)C(C)(C)Cc1ccccc1-3
    100, ., ., -30
> COc1ccc(C(CN)c2c[nH]c3ccccc23)cc1 (stereo unspecified)
    96, 85, 57, -4
> COc1cc2c(cc1OC)C(Cc1ccc(O)cc1)N(C)CC2 (stereo unspecified)
    103, 130, 110, -4
> CCn1c(CNC(=O)C23CC4CC(CC(C4)C2)C3)nnc1SCC(=O)Nc1ccc(C)cc1
    104, 111, 82, -10
> CCOC(=O)c1[nH]c2ccc(OC)cc2c1NC(=O)CN1CCCCC1
    109, ., ., -16
> O=C(NCCCN1CCN(c2ccc(F)cc2)CC1)c1cc(CN2CCOCC2)on1
    99, ., ., -27
> Cc1ccc(NC(=O)Cn2cc(C(=O)C3CC3)c3ccccc32)cc1C
    102, 91, 91, -20
> O=c1c2cn[nH]c2nc(SCc2c(F)cccc2F)n1-c1ccc(Cl)cc1
    105, 118, 95, .
> COc1ccc(NC(=O)Cn2cnc([N+](=O)[O-])n2)c(OC)c1
    96, ., ., -47
> Cc1cccc(N2CCN(CCCNC(=O)CCN3C(=O)c4cccnc4Sc4ccccc43)C(C)C2)c1 (stereo unspecified)
    103, 107, 81, -15
> Cc1cc(C)c2sc(NC(=O)c3ccc(S(=O)(=O)N4CCCC4)cc3)nc2c1
    95, 92, 90, .
> Cc1cccc(NC(=O)Nc2nnc(N(C)C3CCCCC3)s2)c1C
    97, 100, 94, 13
> CCOc1ccc(NC(=O)N2Cc3cccn3-c3ccccc32)cc1
    98, ., ., -22
> Cc1ccc(NC(=O)C2CCN(S(=O)(=O)c3c(C)noc3C)CC2)c(C)c1
    104, 96, 85, -14
> COc1cccc(C(=O)NC2=NC(c3ccccc3Cl)CC(=O)N2)c1 (stereo unspecified)
    104, 104, 99, -1
> CCC1CCCCN1CCCNC(=O)c1[nH]c2ccccc2c1Sc1ccc(Cl)cc1 (stereo unspecified)
    114, 136, 92, -14
> CCn1cc2nc(SCc3ccccc3)n(Cc3ccc(C)cc3)c(=O)c2n1
    102, 83, 88, .
> CC(C)Cc1nc2sc3c(c2c(=O)o1)CCCCC3
    97, 137, 79, -24
> CC1(C)Cc2cccc(C(=O)Nc3ccc(-c4csnn4)cc3)c2O1
    110, 98, 108, 3
> O=C(CCC1CCCC1)NC(c1ccc(F)cc1)c1nnc(-c2ccccc2)o1 (stereo unspecified)
    99, ., ., -13
> CC1(C(=O)NC2CCCCC2)CCC(=O)N1CCc1ccccc1 (stereo unspecified)
    102&103, 102, 87, -28
> Cn1c(=O)c(C(=O)CNc2ccc(S(=O)(=O)N3CCCC3)cc2)c(N)n(Cc2ccccc2)c1=O
    ., 114, 104, -11
> COC(=O)c1cc(C)sc1NC(=S)NCCn1cc(Cl)cn1
    105, 105, 92, -2
> CCCCN(CCCC)CCNC(=O)c1cc(-c2cccnc2)nc2ccc(S(=O)(=O)N3CCC(C)CC3)cc12
    102, 132, 85, .
> Cc1occc1C(=O)N1CCN(S(=O)(=O)c2ccc(F)cc2)CC1
    ., 75, 100, -26
> OCCNCC12CC3CC(CC(C3)C1)C2
    100, 99, 94, -20
> CC(C)c1ccc(O)c(N)c1
    ., 80, 84, -18
> O=C(Cc1cccs1)NC1CC(=O)N(c2ccccc2)C1 (stereo unspecified)
    100, 118, 88, .
> CCOC(=O)C1=C(C)NC2=C(C(=O)CC(c3ccc(OC)c(OC)c3)C2)C1c1ccc([N+](=O)[O-])cc1 (stereo unspecified)
    102, ., ., -19
> O=C(OC1CCCCc2cccnc21)c1ccc(Cl)cc1 (stereo unspecified)
    104, 78, 83, -14
> Cc1nn(-c2ccccc2Cl)c(Cl)c1C=Nc1ccc2[nH]c(=O)[nH]c2c1
    ., 98, 94, -16
